PKD1 inh – inhibitors of human PKD1 kinase; Q15139; PKD1 kinase fluorescence polarization assay; inhibition, %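 (about 10 µM by stock and volumes)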; actives 0.056% (n = 200,000);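 active means inhibition of 50% or more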;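 further: controls were vehicle for no effect and a reference inhibitor for full effect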
Target sequence (Q15139 whole entry, looked up): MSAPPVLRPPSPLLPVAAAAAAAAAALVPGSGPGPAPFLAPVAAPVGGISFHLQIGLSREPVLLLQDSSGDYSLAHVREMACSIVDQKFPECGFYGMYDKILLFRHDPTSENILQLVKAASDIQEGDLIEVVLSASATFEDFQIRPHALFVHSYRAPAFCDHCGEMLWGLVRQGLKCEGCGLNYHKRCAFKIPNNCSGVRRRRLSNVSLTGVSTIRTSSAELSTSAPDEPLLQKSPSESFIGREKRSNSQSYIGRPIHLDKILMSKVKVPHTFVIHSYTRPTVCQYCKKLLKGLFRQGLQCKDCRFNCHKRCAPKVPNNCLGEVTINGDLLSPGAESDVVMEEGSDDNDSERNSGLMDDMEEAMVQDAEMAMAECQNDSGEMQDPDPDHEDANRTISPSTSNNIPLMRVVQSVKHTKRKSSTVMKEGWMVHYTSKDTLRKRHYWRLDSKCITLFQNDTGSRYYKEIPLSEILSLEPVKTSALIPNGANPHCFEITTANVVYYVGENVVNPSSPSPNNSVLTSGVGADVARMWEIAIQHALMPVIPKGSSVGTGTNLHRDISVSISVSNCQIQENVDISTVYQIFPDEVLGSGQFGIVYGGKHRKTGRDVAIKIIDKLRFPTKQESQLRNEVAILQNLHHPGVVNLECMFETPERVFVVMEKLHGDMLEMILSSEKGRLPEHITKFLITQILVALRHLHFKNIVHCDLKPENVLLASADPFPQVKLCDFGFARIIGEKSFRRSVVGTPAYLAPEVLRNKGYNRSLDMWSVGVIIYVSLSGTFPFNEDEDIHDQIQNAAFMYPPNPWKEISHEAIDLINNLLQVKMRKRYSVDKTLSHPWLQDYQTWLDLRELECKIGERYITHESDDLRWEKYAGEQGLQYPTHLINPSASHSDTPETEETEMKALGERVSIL
GALR2 ag – GALR2 (human) receptor agonism; GALR2-expressing cells, agonist activation read-out; activation, %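 (tested at 5 µM)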; actives 0.48% (n = 140,000);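 active means above mean plus 3 SD of all compounds, about 5% in these data, not always enough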;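 further: 0% = vehicle buffer wells and 100% = reference agonist at full effect; tested in CHO reporter cells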
RGS16-Gao – regulators of human RGS16-Galphao interaction | AID 1441 | binding response (% of control), % at 10 µM | bead-based flow cytometry RGS16-Galphao binding, fluorescence; actives lie on both sides | actives 0.38% (n = 220,000);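 active means below 25% or above 175%, edge rows of some plates excepted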;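 further: Galphao activated by GDP with aluminum fluoride before binding; 100% = wells without compound and 0% = beads without RGS; some results beyond the cut were filed as inactive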
HSV augment – increases HSV replication in cells | HSV replication augmentation in cells, fold increase | actives 0.005% (n = 220,000) | AID 1956 | maximum fold increase;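 active means peak rise of 1.5-fold or more in the series; tested in PC3 cells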;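 further: first round at 10 µM; read as green reporter fluorescence; hits show the peak of a series up to 25 µM; 1 = signal of infected wells without compound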
Insulin prom inh – TRM-6 insulin promoter activity inhibition; TRM-6 cells (human fetal islet line), insulin promoter-eGFP reporter, imaging; reporter expression induced with tamoxifen; actives 0.9% (n = 130,000); inhibition, % at 2 µM;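 active means inhibition above the mean plus 3 SD, with well images judged a real hit on visual review, cut at about 60% in these data, passing the limit was not always enough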
Insulin prom inh cell count – further read-out of Insulin prom inh, marked with its call; normalized cell count, %; measured here: cell count, toxicity; reference of the scale not given here;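 cells exposed to compound for 48 h; stained nuclei by imaging scaled within each plate; lower means fewer cells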
HSV augment primary fold – further read-out of HSV augment, marked with its call; fold increase; compound at 10 µM; measured here: primary screen fold increase 10 uM; tested in PC3 cells;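 GFP signal in the first replicate; 1 = infected wells without compound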
An asterisk follows results filed as active; i = inactive; / = not tested or not shown.

SMILES	PKD1 inh	GALR2 ag	RGS16-Gao	HSV augment	HSV augment primary fold	Insulin prom inh	Insulin prom inh cell count
CCC(C)Nc1nc(SC(C(C)=O)C(C)=O)nc(N(C)C)n1 (configuration not stated)	-8	-2.8	107	i	0.84	23	112
Cn1cc(S(=O)(=O)CC(=O)Nc2ccc3c(c2)OCCO3)c2ccccc21	1	-2.3	111	i	1	35	203
COC(=O)c1ccc(O)c(Sc2cc(C(=O)OC)ccc2O)c1	-5	-2.8	96	/	/	-295	78
Cc1cc(C(=O)NNC(=S)NC(C)c2ccccc2)cs1 (configuration not stated)	6	-1.2	285	i	0.98	6	62
CN(CCNC(=O)C1(O)c2ccccc2NC(=O)N1c1ccccc1)Cc1ccccc1 (configuration not stated)	2	-3.1	100	i	1	/	/
Cc1cc(-c2csc(NCc3ccccc3)n2)c(C)n1C	-11	/	76	i	1	/	/
c1coc(CNc2ncnc3c2oc2ccccc23)c1	-15	-0.8	48	i	0.9	35	65
COC(=O)c1c(-c2ccccc2)csc1NC(=O)c1ccco1	4	0.1	29	i	0.87	/	/
Cc1cc(C)cc(C(=O)N2CC(C)OC(C)C2)c1 (configuration not stated)	2	-0.3	99	i	0.65	56	106
CN(C)S(=O)(=O)c1cccc(NC(=O)CCNC(=O)c2ccccc2Cl)c1	7	0.0	98	i	1	/	/
COC(=O)c1cc(Cl)c(NC(=O)/C=C/c2ccc(Cl)cc2Cl)cc1OC	-1	-1.9	106	i	0.78	-17	105
Cc1onc(-c2ccccc2)c1CNC(=O)Nc1cccc(Cl)c1	/	/	104	i	0.82	/	/
CCOC(=O)c1ccc(NC(=O)CC2C(=O)OCCN2CC)cc1 (configuration not stated)	3	/	101	i	1	24	131
CCOC(=O)c1nnn(-c2nn3nnnc3c3ccccc23)c1C	-18	-0.4	106	i	0.94	/	/
COCCn1c(SCC(=O)Nc2ccc(C)cc2)nc2c(oc3ccccc32)c1=O	-3	-1.4	113	i	1.1	19	57
COC(=O)CCN(C(=O)c1ccc(N2CCCC2)c([N+](=O)[O-])c1)c1ccccn1	5	/	100	i	1	/	/
CCCn1c(SCc2ccon2)nc2ccccc2c1=O	3	-0.3	103	i	0.9	23	40
O=C(CC1C(=O)NCCN1Cc1ccc(-c2ccccc2)cc1)NCCc1ccccn1 (configuration not stated)	-7	/	94	i	1	/	/
Cc1ccnc(N2CCC(C(=O)NNC(=O)COc3cccc4ccccc34)CC2)n1	6	-2.0	101	/	/	/	/
CC(=O)c1ccc2c3c(cccc13)CC2	-1	-0.4	-56	i	1	15	154
C=C(C)Cn1cnc2c(oc3nc4c(cc32)CCCC4)c1=O	/	/	85	i	1	/	/
Cc1ccc(S(N)(=O)=O)c(C)c1N1CCCC1=O	7	/	107	i	0.93	14	105
Cc1ccc(C2C(C(=O)c3sc(C)nc3C)=C(O)C(=O)N2CCN(C)C)o1 (configuration not stated)	1	0.0	220	i	0.89	3	106
CC(C)c1cc(CN2CCN(C3CCCC3)C(CCO)C2)[nH]n1 (configuration not stated)	-1	/	101	i	1	/	/
O=C(Cc1ccccc1)Nc1nonc1NC(=O)c1ccccc1	-2	-2.0	87	i	0.93	-31	105
COc1ccccc1NC(=O)N1CCCC1C(=O)Nc1ccc2c(c1)OCCO2 (configuration not stated)	14	/	105	i	1.2	-68	73
CC(=O)Nc1ccc(S(=O)(=O)N2CCCc3ccccc32)cc1	-5	-1.8	101	i	0.72	14	123
Cc1cc(C)n(C(=O)c2cc3sccc3[nH]2)n1	-2	-0.4	84	/	/	/	/
COc1ccccc1NC(=S)N1CCC(c2nc3ccccc3o2)CC1	7	-0.7	99	i	1	/	/
Brc1ccc(CNc2nc3ccccc3n2CCN2CCCCC2)cc1	/	/	103	i	0.88	/	/
O=C(CN(CCc1ccccc1)C(=O)c1csnn1)NC1CCCC1	-7	/	101	i	1	/	/
CNC(=S)N/N=C/c1ccccc1OCC(=O)O	/	/	101	i	0.95	/	/
COc1cc2cc3c(N)c(C(=O)NCc4ccco4)sc3nc2cc1OC	7	-1.3	106	i	0.93	/	/
O=C(N/N=C/C=C/c1ccccc1)c1cc2c(ccc3ccccc32)o1	-9	-2.5	98	i	0.96	-53	144
CCN(CC)CCOC(=O)c1c(C)oc2ccc(OC)cc12	1	-3.1	102	i	0.81	/	/
O=C(N/N=C/C=C\c1cccc([N+](=O)[O-])c1)c1cccnc1	/	/	104	i	0.86	/	/
COCC(C)NS(=O)(=O)c1ccc(C)cc1 (configuration not stated)	-5	-1.1	106	i	0.86	-13	133
COc1ccc(C(=O)NC(=S)NNC(=O)c2cnccn2)cc1OC	5	-1.5	103	i	0.98	/	/
Cc1c(/C=N/n2cnnc2)c2ccccc2n1CCOc1ccccc1	6	2.5	124	i	1	-64	219
COc1ccc(-c2ccc(=O)n(Cc3cc(=O)n4ccccc4n3)n2)cc1	3	0.1	111	i	0.95	0	109
COc1cc(C(=O)NCC(=O)N/N=C/c2ccccn2)cc(OC)c1OC	-5	/	114	i	0.97	47	64
Cc1ccc(-c2noc(COc3ccccc3C)n2)cc1	-11	0.0	101	i	0.91	-53	100
CCOc1ccccc1NS(=O)(=O)c1cccs1	-3	-2.0	100	i	0.97	-372	48
Cc1ccc(/C=N/NC(=O)c2n[nH]c3c2CCCC3)cc1	/	/	102	i	0.72	/	/
CC(C)CCNC(=O)CSc1nc2ccccc2s1	-1	/	100	i	0.93	/	/
Cc1ccc(NC(=O)C2CC(=O)n3c(nc4ccccc43)N2)cc1 (configuration not stated)	-3	-3.0	102	i	0.82	/	/
CC(C)NC(=S)Nc1ccc2nc3n(c(=O)c2c1)CCCCC3	0	-1.0	99	i	0.93	14	129
COc1ccc(CCn2c(C(C)C)nc3oc4ccccc4c(=O)c3c2=O)cc1	/	/	98	i	1.1	/	/

Profiles as entered above. Order of values: PKD1 inh, GALR2 ag, RGS16-Gao, HSV augment, HSV augment primary fold, Insulin prom inh, Insulin prom inh cell count
`Cc1ccc(/C=N/NC(=O)c2n[nH]c3c2CCCC3)cc1` across the screens: /, /, 102, i, 0.72, /, /
`COCC(C)NS(=O)(=O)c1ccc(C)cc1` (configuration not stated) across the screens: -5, -1.1, 106, i, 0.86, -13, 133
`CC(C)CCNC(=O)CSc1nc2ccccc2s1` across the screens: -1, /, 100, i, 0.93, /, /
`COc1ccc(C(=O)NC(=S)NNC(=O)c2cnccn2)cc1OC` across the screens: 5, -1.5, 103, i, 0.98, /, /
`CC(C)NC(=S)Nc1ccc2nc3n(c(=O)c2c1)CCCCC3` across the screens: 0, -1.0, 99, i, 0.93, 14, 129

Going on with the list.
SMILES	PKD1 inh	GALR2 ag	RGS16-Gao	HSV augment	HSV augment primary fold	Insulin prom inh	Insulin prom inh cell count
CC(C)(C)SCCNC(=O)CN(c1ccccc1)S(=O)(=O)c1ccccc1	-5	/	98	i	0.89	-94	92
Cc1cc(/C=C2/NC(=O)N(c3ccccc3)C2=O)c(C)n1-c1cccnc1	-9	0.2	104	i	1	-11	110
O=C(O)Cc1csc2ccccc12	-17	-1.2	97	i	1.1	41	108
COc1ccc(NS(=O)(=O)c2ccc(NC(=S)NC(=O)c3ccc(F)cc3)cc2)nn1	-3	1.1	112	i	1.1	-41	92
C=CCNC(=S)NNC(=O)c1cccn(Cc2ccc(Cl)cc2)c1=O	9	-0.2	96	i	0.71	0	123
Cc1cccc(-n2cc(CN3CCN(C(=O)c4ncn[nH]4)CC3)c(-c3cccc(F)c3)n2)c1	-3	/	142	i	0.96	0	108
Cc1ccc2cc3c(nc2c1)N(c1ccccc1)CC3	-1	/	93	i	0.88	/	/
CCOC(=O)CSc1nc2c(c(=O)n1-c1ccc(OC)cc1)SCC2	2	-1.5	103	i	0.74	/	/
Cc1ccccc1NS(=O)(=O)CCCCC(Cl)(Cl)Cl	-2	/	97	i	1	33	96
CC(C)OC(=O)/C(=C\c1cccc2ccccc12)NC(=O)c1ccccc1	-10	-1.1	93	i	1.1	-20	71
Cc1ccc(S(=O)(=O)N2CCCCC2)cc1NC(=O)Cn1ccsc1=N	6	/	99	i	1	/	/
CC1(C)CC(=O)c2ccc(O)cc2O1	0	/	100	i	0.95	/	/

Exported field by field: part of the list above.
SMILES: C=CCNC(=S)NNC(=O)c1cccn(Cc2ccc(Cl)cc2)c1=O
  PKD1 inh: 9
  GALR2 ag: -0.2
  RGS16-Gao: 96
  HSV augment: i
  HSV augment primary fold: 0.71
  Insulin prom inh: 0
  Insulin prom inh cell count: 123

SMILES: Cc1cccc(-n2cc(CN3CCN(C(=O)c4ncn[nH]4)CC3)c(-c3cccc(F)c3)n2)c1
  PKD1 inh: -3
  GALR2 ag: /
  RGS16-Gao: 142
  HSV augment: i
  HSV augment primary fold: 0.96
  Insulin prom inh: 0
  Insulin prom inh cell count: 108

SMILES: Cc1ccc2cc3c(nc2c1)N(c1ccccc1)CC3
  PKD1 inh: -1
  GALR2 ag: /
  RGS16-Gao: 93
  HSV augment: i
  HSV augment primary fold: 0.88
  Insulin prom inh: /
  Insulin prom inh cell count: /

Next section:
SMILES	PKD1 inh	GALR2 ag	RGS16-Gao	HSV augment	HSV augment primary fold	Insulin prom inh	Insulin prom inh cell count
COc1ccc(CC(=O)Nc2ccc(-c3noc(COc4ccccc4C)n3)cc2)cc1	6	7.8*	127	i	0.93	-27	110
COCCNCC#CCOc1ccc(OC)cc1	-5	-1.7	92	i	0.88	-40	83
CC(C)C(C)(C#N)NC(=O)CSc1nnc(-c2ccncc2)n1Cc1ccccc1 (configuration not stated)	5	-1.4	101	i	0.83	/	/
Cc1ccccc1NC(=S)C1=C(O)c2sccc2N(C)S1(=O)=O	-8	-1.1	105	i	0.98	17	75
COCCNc1nc2c(c(=O)n(Cc3ccc(OC)cc3)c(=O)n2C)n1C	0	-1.3	115	i	0.87	/	/
O=C(NC(=S)Nc1ccccc1N1CCOCC1)c1ccc([N+](=O)[O-])cc1	-5	-2.1	112	i	0.93	-8	81
COCCCN1C(=O)C(=O)/C(=C(/O)c2ccc3c(c2)CC(C)O3)C1c1cccnc1 (configuration not stated)	-10	-1.2	68	i	0.87	25	102
COc1ccccc1OCCNC(=O)c1ccccc1C	3	-0.4	101	i	0.97	0	69
O=C(CN1CCN(c2ccccc2)CC1)Nc1ccc(OCc2ccccc2)cc1	-10	-2.1	105	i	0.99	5	42
CC1CCCCN1C(=S)NCCc1ccccc1 (configuration not stated)	-4	-0.6	98	i	1.1	/	/
C/C(=N/NC(=O)CCc1ccccc1)c1ccco1	9	/	91	i	0.95	37	124
COc1ccc(OC)c(NC(=O)CCCN2C(=O)C3C4C=CC(C4)C3C2=O)c1 (configuration not stated)	-4	-0.2	74	i	1.1	12	106
O=C(O)CC12CC3CC(C1)CC(n1ncc(NCC4CCCO4)c(Cl)c1=O)(C3)C2 (configuration not stated)	/	/	96	i	1.1	/	/
CC(C)[C@H](NC(=O)Nc1ccc(Oc2ccccc2)cc1)C(=O)O	8	0.5	97	i	1	/	/
O=C(c1ccccc1)N1CCN(Cc2ccccc2C(F)(F)F)CC1	6	/	101	i	0.92	35	70
Cc1nonc1CN(C)C(=O)CC1C(=O)NCCN1Cc1ccccc1C(F)(F)F (configuration not stated)	-2	/	95	i	1	/	/
CN(CCc1ccccn1)C(=O)CCC1CCCN(Cc2ccccc2OC(F)F)C1 (configuration not stated)	-2	/	100	i	1	/	/
CNCCOc1ccccc1C(C)(C)C	-1	-0.2	105	i	1	-19	97
CCc1ccc(NC(=O)CSCc2ccc(C(=O)O)cc2)cc1	-7	/	101	i	1.1	/	/
CC(=O)Nc1ccc(NC(=O)C(C)OC(=O)CCC(=O)c2ccc(F)cc2)cc1 (configuration not stated)	-5	-1.9	100	i	0.88	-19	101
CCc1cccc(NC(=O)c2ccc(Br)o2)c1	-2	-2.4	99	/	/	53	128
CCCCOc1ccc(-c2csc(N)n2)cc1[N+](=O)[O-]	-2	-1.4	103	i	0.81	24	66
O=C(Nc1nc(-c2cccc(Br)c2)cs1)Oc1ccccc1	13	-1.3	100	i	0.68	/	/
Cc1ccc(NC(=O)c2cc(NC(=O)c3ccco3)ccc2N2CCOCC2)cc1Cl	1	-3.6	102	i	0.78	0	106
COC(=O)[C@H](CC(C)C)NC(=O)N1CCC(C)CC1	/	/	93	i	1	/	/
O=C(Nc1cccnc1Cl)c1ccc(S(=O)(=O)N2CCCCCC2)cc1	9	-1.0	101	/	/	-3	135
CCOc1ncccc1C(=O)OCC(=O)c1ccccc1	-7	/	103	i	1.1	-24	106
O=C1C(=O)c2ccccc2C(O)=C1c1cccc([N+](=O)[O-])c1	/	/	100	i	0.99	/	/
O=C(Nc1ccc(Oc2ccc3c(c2)C(=O)N(c2ccc(O)cc2)C3=O)cc1)c1cccs1	1	0.0	103	i	0.98	/	/
C/C=C/C(=O)Nc1cccc(C2=NOC3(C2)C[C@@H](C(N)=O)N(C(=O)c2cc([N+](=O)[O-])cc([N+](=O)[O-])c2C)C3)c1 (some centres not stated)	/	/	101	i	0.92	/	/

Source: PubChem

Rows are unselected; 1.3% or so of the library scored in one or more.
